Screens deposited in PubChem BioAssay by several laboratories.
CSC inhib = blocks cancer stem cells. cancer stem cell-like cells viability, luminescence. inhibition, % at 7.5 µM. actives 1.1% (n = 300,000). AID 2717;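 active = mean at 75% or more and at least half the replicates too; inconclusive = mean and replicates disagree; tested in HMLE shEcad cells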;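 also: 0% = median of negative and 100% = median of positive control wells; the first replicate is given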
HIV Env fusion = inhibitors of HIV Env-mediated cell fusion; inhibition, % at 12.3 µM; actives 1.1% (n = 360,000); HeLa-JRFL Env/CEM21 cell fusion, luciferase;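 active = mean replicate inhibition score of at least 50 and every replicate individually at or above 50; inconclusive = only one of the two criteria met; inactive = mean below 50 and not all replicates reaching 50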;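 also: 0% = plate neutral controls and 100% = maraviroc near 300 nM; one replicate is shown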
Yeast UUG start = yeast start codon fidelity modulation | actives 0.13% (n = 350,000) | S. cerevisiae UUG-firefly luciferase reporter, luminescence/redox ratio | activity score, % at 18.7 µM;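 active = replicate mean at a twofold rise or more, about +100% in these data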;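 also: firefly luciferase made from a UUG start codon reports start codon fidelity; reporter light over untreated wells divided by growth signal over untreated wells; some hits fall short of that in this replicate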
MT1-MMP act inh = blocks activation of human MT1-MMP; P50281; HT1080 RFP-PRO-GFP cells, GFP/RFP ratio fluorescence, overnight; percent of plate control window, DMSO zero; GFP/RFP ratio change, % at 20 µM; actives 0.061% (n = 360,000);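 active = GFP/RFP ratio change of at least 30% with cell ATP level not reduced by more than half and red fluorescence within 50% of control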; also: strong numbers were not always called active
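Assay system – RFP-PRO-GFP reporter HT1080 cells · Compound dosing – single dose of 20 µM compound, 1% DMSO final · Incubation – overnight compound exposure at 37 °C · Measure – GFP/RFP fluorescence ratio · Benchmarks – DMSO wells and RFP-L50D-GFP cells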
PABP polyA inh = blocks human PABP binding to poly(A) RNA | actives 1% (n = 290,000) | inhibition, % at 35 µM | P11940 | fluorescence polarization;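 active = 50% or more with normal probe brightness, or confirmed in later tests; inconclusive = above 50% with abnormal brightness, or retests that disagree; inactive = below 50% or failed in later tests; about a fifth of its hits are not listed in these tables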;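 also: calls also rest on retests at 20 µM and on dose response follow-up; controls were probe without protein and protein plus probe with vehicle; some compounds called inactive have numbers as strong as hits; many hits fall short of the cut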
Rce1 inhib = blocks yeast Ras-converting enzyme; Q03530; yeast membranes, quenched prenylated peptide cleavage fluorescence; calls only; actives 0.27% (n = 290,000); AID 2563;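 active = fall in fluorescence gain of 50% or more versus controls, with final raw signal at or below 3038400; inconclusive = same 50% fall but final raw signal above 3038400; inactive = fall in fluorescence gain under 50%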;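 also: plate controls were neutral control wells for no effect and wells lacking membranes for full effect; tested at 10 µM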
Target sequence (Q03530 whole entry, looked up): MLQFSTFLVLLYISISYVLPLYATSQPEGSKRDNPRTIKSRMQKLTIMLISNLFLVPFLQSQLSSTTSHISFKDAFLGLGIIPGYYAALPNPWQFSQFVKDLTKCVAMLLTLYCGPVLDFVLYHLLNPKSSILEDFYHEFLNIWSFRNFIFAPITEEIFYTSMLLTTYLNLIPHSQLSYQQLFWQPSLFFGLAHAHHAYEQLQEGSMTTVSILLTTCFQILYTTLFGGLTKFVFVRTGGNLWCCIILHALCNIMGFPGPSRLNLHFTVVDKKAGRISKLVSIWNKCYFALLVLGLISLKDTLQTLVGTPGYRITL
eIF4H FP inh = inhibitors of RNA binding by human eIF4H. Q15056. eIF4H fluorescence polarization binding assay. inhibition, % at 35 µM. actives 0.94% (n = 290,000);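 active = 50% or more with normal probe brightness, or confirmed in later tests; inconclusive = above 50% with abnormal brightness, or retests that disagree; inactive = below 50% or failed in later tests; about a fifth of its hits are not listed in these tables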;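 also: calls also rest on retests at 20 µM and on dose response follow-up; 0% = protein and probe with vehicle and 100% = probe without protein; strong numbers were not always called active; many hits fall short of the cut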
MT1-MMP act inh RFP = recorded beside MT1-MMP act inh, whose call it bears; RFP signal change, %; measured here: RFP expression control read;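 0 = vehicle wells; hits needed this value within 50% of zero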
An asterisk follows results filed as active; i = inactive; ? = inconclusive; nt = not tested or not shown; & = joins results of further samples; [ ] = another dose, or the depositor's remark.

SMILES	CSC inhib	HIV Env fusion	Yeast UUG start	MT1-MMP act inh	MT1-MMP act inh RFP	PABP polyA inh	Rce1 inhib	eIF4H FP inh
O=S1(=O)c2ccccc2N=NN1Cc1ccc(Cl)c(Cl)c1	-6	nt	nt	nt	nt	11	i	3
O=C(CNC(=O)N1CC(=O)Nc2ccccc21)NCCc1c[nH]c2ccccc12	-5	nt	1	0	4	-15	i	3
N#CC1=C2SCN(Cc3ccco3)CN2C(=O)CC1c1ccccc1F (configuration not stated)	6	nt	-23	-2	2	32	i	6
COc1cccc(-c2csc(N3CCN(C(=S)Nc4ccccc4C)CC3)n2)c1	-1	-6	-21	-6	-3	-15	i	-7
Cc1ccc(OCC(=O)NNC(=O)C(C)Sc2ncnc3sc(C)c(C)c23)cc1 (configuration not stated)	nt	-19	-16	3	-5	-2	i	1
O=C(Nc1ccc2[nH]ccc2c1)c1ccc(F)cc1	3	-168	-84	4	1	-1	i	4
C[C@@H]1CCCCO[C@H](CN(C)C)[C@H](C)CN([C@@H](C)CO)C(=O)c2cc(NC(=O)Nc3ccc(C(F)(F)F)cc3)ccc2O1	nt	-3&29[16.7 µM]	23&22	4	2	nt	nt	nt
O=C(COc1ccc(Br)cc1)NCCCN1CCCC1=O	nt	-42	-3	-5	-1	nt	nt	nt
O=C(CCNC(=O)c1ccccc1Cl)Nc1ccc(S(=O)(=O)Nc2nccs2)cc1	-15	-6	nt	3	3	nt	nt	nt
CC(C)(C)NCc1cc(Br)ccc1OC1CCCC1	-4	14	nt	-2	0	9	i	1
CC(C)(O)C#Cc1ccc(CN2CCC(n3nccc3NC(=O)C3CC3)CC2)cc1	13	-2	-13	0	4	7	i	-11
Cc1[nH]n(-c2cccc(Cl)c2)c(=O)c1/C=N/n1c(C)nc2ccccc2c1=O	0	-298	-43	-17	-8	15	i	-5
COCCn1c(=O)[nH]c2cc(C(=O)NCCN3CCN(c4ccccc4F)CC3)ccc2c1=O	nt	10	-5	0	1	-12	i	0
N#Cc1ccccc1OCC(=O)N1CC(=O)Nc2ccccc21	nt	-18	-26	-2	5	nt	nt	nt
Cc1onc(-c2c(F)cccc2Cl)c1C(=O)Nc1nc2ccccc2[nH]1	17	nt	-9	4	3	-5	i	7
CCOC(=O)N1CCN(C(=O)CSc2ccc(-c3cccc(OC)c3)nn2)CC1	-4	6	nt	6	-3	-1	i	12
CCn1c(=O)n(CC)c2cc(N3CCCC3)c(NC(=O)c3ccccc3F)cc21	31	11	-8	3	0	9	i	-8
O=C(CN1C(=O)CSC1=O)Nc1ccc(C(=O)O)cc1	-11	nt	-3	-1	-2	11	i	-24
Cc1nc(-c2ccccn2)sc1C(=O)O	-7	15	nt	3	5	6	i	-2
Cc1cc(C(=O)NCc2ccc(S(N)(=O)=O)cc2)ccc1[N+](=O)[O-]	0	5	-14	0	1	0	i	7
CC(C)Oc1ccc(S(=O)(=O)N2CCOCC2)cc1NC(=O)CN1C(=O)NC2(CCCC2)C1=O	nt	5	-10	3	5	-4	i	-3
COc1cccc(C(=O)N(Cc2ccc(N(C)C)cc2)C2CCS(=O)(=O)C2)c1 (configuration not stated)	-6	-46	-9	4	7	-9	i	1
Cc1ccc(NC(=O)O/N=C/c2cccc([N+](=O)[O-])c2)cc1	-10	-24	-2	1	-1	0	i	5
CCCCCCCOc1ccc(OC(=O)c2cccnc2)cc1	96*	nt	-18	-4	3	5	i	-20
O=C(NN1CCOCC1)c1cccc(COc2cccc(Br)c2)c1	-9	10	nt	0	-2	3	i	-5
CC(C(=O)N1CCCC1)N1CCN(S(=O)(=O)c2ccccc2)CC1 (configuration not stated)	-4	-22	2	-1	7	nt	nt	nt
C/C=C(/C)C(=O)O[C@@H]1c2c(ccc3ccc(=O)oc23)O[C@@H]1C(C)(C)OC(C)=O	4	-7	2	0	0	-6	i	-3
Cc1ccc(C)c(OCCCC(=O)Nc2ccccc2C(N)=O)c1	nt	1	nt	3	4	-14	i	-2
O=C(NCc1ccccc1)c1cc(C2CCCCN2C(=O)c2cccs2)on1 (configuration not stated)	nt	19	-7	0	-5	nt	nt	nt
CC(Sc1ccc(S(=O)(=O)N2CCN(C)CC2)cn1)C(=O)NC1CCCC(C)C1C (configuration not stated)	nt	16	-3	5	2	nt	nt	nt
CC1CCN(CCC(=O)Nc2nccs2)CC1	6	-13	nt	0	1	3	i	-3
CC1(C)CC2(CCO1)OC(=O)CC2C(=O)Nc1cccc2ccccc12 (configuration not stated)	-13	3	-7	3	11	14	i	-2
O=C(Nc1ccccc1)c1ccc(S(=O)(=O)NCc2cccnc2)cc1	6	42	-13	2	-15	-14	i	-12
CC(C)c1nc2ccc(Br)cn2c1NC1CCCC1	7	21	nt	-1	4	8	i	-10
Cn1c(SCc2ccccc2C#N)nc2ccccc2c1=O	16	4	-13	-9	-8	6	i	3
O=C1CCCN2N=C(SCC(=O)N3CCCCC3)SC2=N1	-16	11	nt	1	6	-3	nt	3
COc1cc(/C=C2\SC(=S)N(NC(=O)c3ccccc3OC)C2=O)ccc1O	2	9	-7	-29	55	-20	i	6
COc1ccc(CCNC(=O)c2ccc(CS(=O)(=O)Cc3cccc(C)c3)o2)cc1OC	-8	13	-2	5	-12	3	i	4
Cc1c(C(=O)NCc2ccc(Cl)c(Cl)c2)sc(=O)n1Cc1ccc(S(C)(=O)=O)cc1	nt	50	-6	7	-25	nt	nt	nt
COc1ccc(S(=O)(=O)N2CCCC(C(=O)NCc3ccccn3)C2)cc1Cl (configuration not stated)	-8	nt	-8	-2	-8	1	i	-2

Complete entries from above. Screens in order: CSC inhib | HIV Env fusion | Yeast UUG start | MT1-MMP act inh | MT1-MMP act inh RFP | PABP polyA inh | Rce1 inhib | eIF4H FP inh
O=C(Nc1ccccc1)c1ccc(S(=O)(=O)NCc2cccnc2)cc1 as listed: 6 | 42 | -13 | 2 | -15 | -14 | i | -12
CC(Sc1ccc(S(=O)(=O)N2CCN(C)CC2)cn1)C(=O)NC1CCCC(C)C1C (configuration not stated) as listed: nt | 16 | -3 | 5 | 2 | nt | nt | nt

Carrying on.
SMILES	CSC inhib	HIV Env fusion	Yeast UUG start	MT1-MMP act inh	MT1-MMP act inh RFP	PABP polyA inh	Rce1 inhib	eIF4H FP inh
CCc1cc2cc(OC)ccc2nc1SCC(=O)Nc1cc(OC)c(OC)cc1C(=O)O	-7	4	nt	2	4	1	i	0
CC(=O)Nc1ccc2nc(NC(=O)COc3ccccc3)sc2c1	-4	9	-18	-2	2	6	i	-1
CCCCCCCNC(=O)CC(NS(=O)(=O)c1ccc(NC(C)=O)cc1)C(C)C (configuration not stated)	-10	21	nt	0	0	9	i	-6
C/C(=N\NC(=O)C1CC1(C)c1ccccc1)c1ccco1 (configuration not stated)	nt	6	nt	2	5	-4	i	9
Cn1nnnc1SCC(=O)Nc1ccccc1-c1ccccc1	-6	nt	1	-1	1	-8	i	0
Cc1c(Cl)cccc1NC(=O)CNc1cccc(C(F)(F)F)c1	nt	-9	nt	nt	nt	4	i	0
CCOc1cc(C#N)c(NC(=O)c2ccnn2C)cc1OCC	2	-14	2	-1	1	-6	i	-4
CCOC(=O)C1=C(C)N=c2s/c(=C/c3cccc(OCC(=O)O)c3)c(=O)n2C1c1ccc(F)cc1 (configuration not stated)	15	9	nt	nt	nt	14	i	6
N#C/C(=C/c1ccc2c(c1)OCO2)C(=O)Nc1ccc(O)cc1	29	-25	-16	5	-1	-13	i	7
CCCCn1c(N)c(N(CCOC)C(=O)CN2C(=O)NC3(CC(C)CC(C)(C)C3)C2=O)c(=O)[nH]c1=O (configuration not stated)	nt	3	-10	2	2	nt	nt	nt
CC1=C(C(=O)Nc2ccccn2)C(c2ccc(Br)cc2)n2ncnc2N1 (configuration not stated)	-13	-78	-11	-5	3	-8	i	-3
CCOC(=O)C1CCCN(C(=O)c2cnn3c(C(F)F)cc(-c4ccc(C)cc4)nc23)C1 (configuration not stated)	-2	nt	3	14	-10	0	i	-5
CCc1cccc(C)c1NC(=O)COC(=O)C1CC(=O)N(CCc2ccc(OC)c(OC)c2)C1 (configuration not stated)	nt	14	0	3	0	nt	nt	nt
Cc1ccc2nc(Cl)c(CN(Cc3cccs3)C(=O)C3CC3)cc2c1	-14	45	-10	-1	-6	-9	i	-7
N#Cc1c2n(c3c(=O)[nH]cnc13)CCCC2	-8	-68	-13	5	1	2	i	11
CCCNC(=O)C(Cc1cccc(Cl)c1)NC(=O)c1ccc(C#N)cc1 (configuration not stated)	-7	10	-14	0	-2	nt	nt	nt
Cc1nn(-c2ccccc2)c(C)c1-c1nnc(-c2c(C)nn(-c3ccccc3)c2C)o1	25	15	nt	5	-9	4	i	-4
O=C(O)c1ccc2nc(C(F)(F)F)[nH]c2c1	-14	23	-15	4	10	-6	nt	-8
C/C=C/c1ccc(OCCn2nnc3ccccc32)c(OC)c1	-2	3	-13	3	-22	3	i	8
CCCCSCCCNC(=O)Nc1cccc(OC)c1	0	nt	-27	3	0	-3	i	-8
c1ccc(-c2nnc(SCc3nc4ccccc4[nH]3)o2)cc1	-7	-10	-13	-3	-5	-7	i	-5
Cc1c(C(N)=O)c(-c2ccccc2)nn1-c1ccccc1	-8	13	nt	-1	1	-2	i	1
COC(=O)c1ccccc1NC(=O)CSc1nnc(-c2cccc(NC(C)=O)c2)n1C	6	nt	-12	2	3	-8	i	3
CSc1ncccc1C(=O)OCC(=O)Nc1ccc(C)c(S(=O)(=O)N2CCOCC2)c1	-11	76*	-3	7	-3	nt	nt	nt
CCN1C(=O)CC(NC2CCN(C(=O)c3ccc(F)cc3)CC2)C1=O (configuration not stated)	-6	-30	-3	2	4	-6	i	1
CCNc1cc(Nc2c(C)n(C)n(-c3ccccc3)c2=O)c([N+](=O)[O-])c2nonc12	-6	16	-11	1	-2	2	i	2
Cn1ccc2c(-c3ccc(CO)cc3)cc3c(c21)C1CCC3C1 (configuration not stated)	nt	21	1	-1	-3	nt	nt	nt
Cc1ccc(C(NC(=O)C2CCN(Cc3ccc(Oc4ccccc4)cc3)CC2)c2ccccn2)cc1 (configuration not stated)	nt	20	-8	-1	-7	nt	nt	nt
CCOC(=O)c1cnc(C(C)(C)C)[nH]c1=O	6	nt	-14	3	9	-1	i	-1
Cc1csc2ncnc(N3CCN(C(=S)Nc4ccc(C(F)(F)F)cc4)CC3)c12	22	14	-26	-1	-8	-8	i	-1
CC1(C)CC(=O)C=C(N2CCNCC2)C1	-12	1	nt	2	4	5	nt	4
COc1cc(NC(=S)N2CCCC(C)C2)cc(OC)c1OC (configuration not stated)	-15	-6	nt	-2	7	4	i	9
CCCN=C1N(CC)C[C@@H]2[C@@H]3C(=O)N(C)C(=O)[C@@H]3[C@](CC)(C(=O)OC)N12	nt	-60	-29	1	2	nt	nt	nt
O=C(NNC(=O)c1ccccc1O)c1ccc(-c2ccc([N+](=O)[O-])cc2)o1	-5	-1	nt	6	2	nt	i	nt
O=S(=O)(c1ccc(Cl)s1)N1CCN(CCc2ccccc2)CC1	-7	-2	-14	6	-8	-3	i	3
Cc1ccc(C2CC2C(=O)NNC(=S)Nc2ccc(Cl)cc2)cc1 (configuration not stated)	-10	-56	-27	1	1	14	i	14
CC(Nc1nc(-c2ccc(Cl)cc2)cs1)c1nc2cc(Cl)c(N3CCCCC3)cc2n1CCOCCO (configuration not stated)	?	25	-27	2	-17	nt	i	nt
CCCCNC(=S)N1CCC(Cc2ccccc2)CC1	11	nt	-12	1	0	2	i	-6
CCOC(=O)CC(NC(=O)c1ccco1)c1ccccc1Cl (configuration not stated)	nt	nt	-25	1	-5	1	i	-3
CCCn1c(SCC(=O)c2ccc3c(c2)OCCO3)nnc1C(C)C	7	nt	-36	-1	4	-2	i	0
